human PMI inhibition: inhibitors of human PMI, primary screen, biochemical, fluorescence intensity, coupled assay (AID 1209); 0.42% of 190,000 active; purified PMI enzyme, coupled fluorescence intensity; higher % means a stronger effect; one-dose inhibition, % at 20 µM; IC50 in µM for titrated hits; in the data active = inhibition above about 50%;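 also: plate controls were DMSO vehicle for no effect and wells lacking substrate for full effect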
Myeloid diff 2: induction of myeloid progenitor differentiation, primary screen, cell-based, flow cytometry, MLPCN library. ER-HoxA9 myeloid progenitors, lysozyme-GFP differentiation. calls only at 10 µM. 1% of 360,000 active;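 active = normalized GFP-positive differentiation at or above the plate's own cutoff, the solvent-only control mean plus 3 SD; inconclusive = no clear call, values can overlap the other calls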;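 also: cells exposed to compound for four days before flow analysis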
Dynein transport: inhibitors of GR-EGFP nuclear translocation, primary screen, dynein cargo transport inhibitor project, imaging, high-content, 3617.4 mouse cells; test concentration mostly 20 µM; stimulated with dexamethasone, 1 µM; active compounds read low; z-score, hits read low; 0.47% of 220,000 active; AID 1381, 2008;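 active = plate z-score of nuclear minus cytoplasmic receptor signal below a set negative limit, without overly bright fluorescence or cell loss, cut at about -3.5 in these data, passing the limit was not always enough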;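 also: z-score of nuclear minus cytoplasmic ring GR-EGFP intensity difference per well; some compounds called inactive have numbers as strong as hits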
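Buffer or medium: tet-free, stripped-serum medium; Also added: dexamethasone, 1.0 µM final; Technique: high-content fluorescence imaging after fixation; Times: 48 h induction, 1 h compound, 30 min dex at 37 °C; Read-out: per-cell GR-EGFP intensity, nucleus versus surrounding cytoplasmic ring, well-averaged.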
T cell HTS: modulators of CD8 T cell-vesicle binding, primary screen, mouse 2C CD8+ T cells, flow cytometry; 2C CD8+ T cell-vesicle binding; active compounds read low; 0.068% of 330,000 active; calls only at 7 µM;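 active = response, share of CD8 T cells binding vesicles, and their 90th percentile fluorescence all below set limits, cut at about 80% in these data, passing the limit was not always enough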
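incubation = binding step 1.5 h, 37 °C, antibody labelling 20 min, ice | test system = 2C mouse CD8+ T cells | read-out basis = percent CD8+ FL2 mean versus row control | controls = Peptide-free naked vesicles (low) and QL9 vesicles with 0.7% DMSO vehicle (high) | detection = flow cytometry of vesicle-bound cells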
MT stabilize HCS: microtubule stabilizers in HeLa cells, primary screen, imaging, high-content imaging | HeLa tubulin immunostaining HCS, 24 h; share of cells brighter than vehicle mean+2SD | % tubulin-high responders, % at 10 µM | 0.83% of 200,000 active;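 active = plate Z-score above 3 for both tubulin-high and condensed-nucleus cell shares, with cell loss under 80%, at 10 µM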;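 also: anti alpha tubulin signal scored within the nucleus-defined area of each cell; some results filed as inactive read as strong as hits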
Dynein transport cytoplasmic EGFP: also measured in Dynein transport; calls as there; z-score; measured here: cytoplasmic GR-EGFP intensity; active compounds read high
Dynein transport nuclear GR-EGFP: further read-out of Dynein transport, marked with its call; z-score; measured here: nuclear GR-EGFP intensity;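 lower value marks the stronger effect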
Dynein transport cell count: second read-out of Dynein transport, no call of its own (marks repeat the call); z-score; measured here: cell count per field
T cell HTS vesicle-bound %: recorded beside T cell HTS, whose call it bears; double positive events, %; measured here: CD8+ vesicle-bound cell fraction;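 binding gate set so that unloaded-vesicle control wells show 10% double positive cells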
MT stabilize HCS Hoechst-high %: also measured in MT stabilize HCS; calls as there; % Hoechst-high responders; measured here: nuclear condensation Hoechst responders;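 share of cells brighter than vehicle mean plus two SD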
MT stabilize HCS cytotoxicity %: further read-out of MT stabilize HCS, marked with its call; toxicity, %; measured here: cytotoxicity by cell density;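 0% = mean cell density of plate MIN control wells and 100% = no cells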
Myeloid diff 2 GFP+ MAC1+ %: further read-out of Myeloid diff 2, marked with its call; GFP+ MAC1+ double positive, %; measured here: differentiation confirmed by MAC1 staining
An asterisk follows results filed as active; i = inactive; ? = inconclusive; . = not tested or not shown; & = joins results of further samples.

1	Cc1cc(C)cc(OCC(=O)NNC(=O)c2cc(C)[nH]n2)c1
2	CN[C@@H]1CC[C@H](c2ccc(Cl)c(Cl)c2)c2ccccc21
3	CCCCCCCCCCSc1n[nH]c(NC(C)=O)n1
4	O=C(Cc1cnn(-c2ccccc2)c1)c1ccc(O)c(O)c1O
5	CC(C)n1c(/C=C/[C@H](O)C[C@H](O)CC(=O)O)c(-c2ccc(F)cc2)c2ccccc21
6	C[C@@H]1O[C@@H](OC[C@H]2O[C@@H](Oc3c(-c4ccc(O)c(O)c4)oc4cc(O)cc(O)c4c3=O)[C@H](O)[C@@H](O)[C@@H]2O)[C@H](O)[C@H](O)[C@H]1O
7	CCn1ncc(/C=N\NC(=O)c2ccc3c(c2)c(C)c(C)n3Cc2ccccc2)c1C
8	Cc1cccc(CCN2CCC(C(=O)c3ccc(NS(C)(=O)=O)cc3)CC2)n1

| Compound | 1 | 2 | 3 | 4 | 5 | 6 | 7 | 8 |
| --- | --- | --- | --- | --- | --- | --- | --- | --- |
| human PMI inhibition | 4.7% | . | -1.9% | 70.8%* | . | 50.3%* | 10.5% | -9.1% |
| Myeloid diff 2 | i | i | i | i | i | i | i | . |
| Myeloid diff 2 GFP+ MAC1+ % | 1.4 | 0.3 | 0.6 | 0.7 | 1.0 | 1.5 | 0.6 | . |
| Dynein transport | 0.00294 | . | -0.998 | 0.171 | . | . | 0.549 | . |
| Dynein transport cytoplasmic EGFP | -0.201 | . | -0.0785 | 0.191 | . | . | -0.233 | . |
| Dynein transport nuclear GR-EGFP | -0.281 | . | -0.61 | 0.221 | . | . | 0.416 | . |
| Dynein transport cell count | 0.375 | . | 0.99 | -0.265 | . | . | 1.08 | . |
| T cell HTS | i | i | i | i | i | i | i | i |
| T cell HTS vesicle-bound % | 19.4 | 47.3 | 31.1 | 45.0 | 37.8 | 19.4 | 12.6 | 24.9 |
| MT stabilize HCS | 1.2 | . | 0.9 | 1.5 | . | . | 2.0 | . |
| MT stabilize HCS Hoechst-high % | 1.0 | . | 1.5 | 1.8 | . | . | 0.9 | . |
| MT stabilize HCS cytotoxicity % | 5.6 | . | 9.0 | 11.7 | . | . | 1.8 | . |

9	O=C(O)/C=C/c1ccc(O)c(O)c1
10	N#Cc1ccc(C(=O)Nc2nc(SCc3ccc(Cl)cc3)n[nH]2)cc1
11	c1ccc([C@H]2CN3CCSC3=N2)cc1
12	CC(C)NC[C@@H](O)COc1cccc2ccccc12
13	OCCOCCN1CCN(C2=Nc3ccccc3Sc3ccccc32)CC1
14	C#CC1(O)CCC2C3CCC4=C(CCC(=O)C4)C3CCC21C (centres undefined)
15	O=C(O)CC(O)(CC(=O)O)C(=O)O
16	Cc1cc(C(=O)Nc2ncn[nH]2)ccc1[N+](=O)[O-]

| Compound | 9 | 10 | 11 | 12 | 13 | 14 | 15 | 16 |
| --- | --- | --- | --- | --- | --- | --- | --- | --- |
| human PMI inhibition | 56.4%* | -16.6% | . | . | 6.8% | . | . | -2.3% |
| Myeloid diff 2 | i | i | i | i | i | i | i | i |
| Myeloid diff 2 GFP+ MAC1+ % | 2.2 | 0.3 | 0.5 | 0.7 | 6.4&4.2 | 1.4 | 0.9 | 0.7 |
| Dynein transport | 0.523 | 0.983 | . | . | . | . | . | 0.361 |
| Dynein transport cytoplasmic EGFP | -0.123 | -0.294 | . | . | . | . | . | -0.186 |
| Dynein transport nuclear GR-EGFP | 0.48 | 0.938 | . | . | . | . | . | 0.576 |
| Dynein transport cell count | 0.714 | -0.0984 | . | . | . | . | . | -0.262 |
| T cell HTS | i | i | i | i | i | . | i | i |
| T cell HTS vesicle-bound % | 27.1 | 21.6 | 13.7 | 32.0 | 40.7&21.2 | . | 17.3 | 52.3 |
| MT stabilize HCS | 2.3 | 7.0 | . | . | . | . | . | 2.9 |
| MT stabilize HCS Hoechst-high % | 2.2 | 2.5 | . | . | . | . | . | 1.9 |
| MT stabilize HCS cytotoxicity % | 4.7 | 24.5 | . | . | . | . | . | 12.4 |

17	C=C(CC)C(=O)c1ccc(OCC(=O)O)c(Cl)c1Cl
18	COCc1cc(C)nc(SCC(=O)c2ccc(O)c(O)c2)c1C#N
19	O=[N+]([O-])c1ccccc1Nc1ccccc1
20	Cc1ccc(Nc2cc(C)nn2-c2nc(C)cc(=O)[nH]2)cc1
21	CCN(CC)S(=O)(=O)c1ccc(-c2nnc(SCC(=O)N3CCc4ccccc43)o2)cc1

| Compound | 17 | 18 | 19 | 20 | 21 |
| --- | --- | --- | --- | --- | --- |
| human PMI inhibition | -14.4% | 9.5% | -7.3% | -13.9% | 3.1% |
| Myeloid diff 2 | i | i | i | ? | i |
| Myeloid diff 2 GFP+ MAC1+ % | 1.8 | 1.8 | 0.4 | . | 1.1 |
| Dynein transport | -3.74* | -0.606 | -1.12 | -0.185 | . |
| Dynein transport cytoplasmic EGFP | 0.663* | -0.187 | -0.282 | 0.074 | . |
| Dynein transport nuclear GR-EGFP | -1.64* | -0.0463 | -0.253 | -0.239 | . |
| Dynein transport cell count | 0.474* | 0.188 | 0.96 | -0.966 | . |
| T cell HTS | i | i | i | i | i |
| T cell HTS vesicle-bound % | 58.7 | 36.8 | 24.0 | 14.7 | 15.2 |
| MT stabilize HCS | 1.5 | 6.3 | 6.4 | 13.3 | . |
| MT stabilize HCS Hoechst-high % | 2.3 | 3.5 | 2.9 | 1.7 | . |
| MT stabilize HCS cytotoxicity % | 9.6 | 14.7 | 7.4 | 12.3 | . |

Sorted by formula weight (highest first): six of the compounds above.
21	CCN(CC)S(=O)(=O)c1ccc(-c2nnc(SCC(=O)N3CCc4ccccc43)o2)cc1
13	OCCOCCN1CCN(C2=Nc3ccccc3Sc3ccccc32)CC1
18	COCc1cc(C)nc(SCC(=O)c2ccc(O)c(O)c2)c1C#N
17	C=C(CC)C(=O)c1ccc(OCC(=O)O)c(Cl)c1Cl
20	Cc1ccc(Nc2cc(C)nn2-c2nc(C)cc(=O)[nH]2)cc1
19	O=[N+]([O-])c1ccccc1Nc1ccccc1

| Compound | 21 | 13 | 18 | 17 | 20 | 19 |
| --- | --- | --- | --- | --- | --- | --- |
| human PMI inhibition | 3.1% | 6.8% | 9.5% | -14.4% | -13.9% | -7.3% |
| Myeloid diff 2 | i | i | i | i | ? | i |
| Myeloid diff 2 GFP+ MAC1+ % | 1.1 | 6.4&4.2 | 1.8 | 1.8 | . | 0.4 |
| Dynein transport | . | . | -0.606 | -3.74* | -0.185 | -1.12 |
| Dynein transport cytoplasmic EGFP | . | . | -0.187 | 0.663* | 0.074 | -0.282 |
| Dynein transport nuclear GR-EGFP | . | . | -0.0463 | -1.64* | -0.239 | -0.253 |
| Dynein transport cell count | . | . | 0.188 | 0.474* | -0.966 | 0.96 |
| T cell HTS | i | i | i | i | i | i |
| T cell HTS vesicle-bound % | 15.2 | 40.7&21.2 | 36.8 | 58.7 | 14.7 | 24.0 |
| MT stabilize HCS | . | . | 6.3 | 1.5 | 13.3 | 6.4 |
| MT stabilize HCS Hoechst-high % | . | . | 3.5 | 2.3 | 1.7 | 2.9 |
| MT stabilize HCS cytotoxicity % | . | . | 14.7 | 9.6 | 12.3 | 7.4 |

Bioassay records (PubChem)

Some of the compounds tested, so the mix of outcomes need not match the whole.
